Screening results from PubChem.
TRPV1 potentiator = potentiators of human vanilloid receptor 1 (TRPV1); TRPV1-expressing cells, Fluo-8 calcium influx, capsaicin EC20 potentiation; host cell line not named in the record; control for the full effect not named in the record; potentiation, % at 8.33 µM; 320,000 tested, 0.02% active; Q8NER1; active means potentiation above 80%; inconclusive means 30% to 80%; inactive means below 30%; note: 0% is about no effect
Target sequence (Q8NER1 whole entry, looked up): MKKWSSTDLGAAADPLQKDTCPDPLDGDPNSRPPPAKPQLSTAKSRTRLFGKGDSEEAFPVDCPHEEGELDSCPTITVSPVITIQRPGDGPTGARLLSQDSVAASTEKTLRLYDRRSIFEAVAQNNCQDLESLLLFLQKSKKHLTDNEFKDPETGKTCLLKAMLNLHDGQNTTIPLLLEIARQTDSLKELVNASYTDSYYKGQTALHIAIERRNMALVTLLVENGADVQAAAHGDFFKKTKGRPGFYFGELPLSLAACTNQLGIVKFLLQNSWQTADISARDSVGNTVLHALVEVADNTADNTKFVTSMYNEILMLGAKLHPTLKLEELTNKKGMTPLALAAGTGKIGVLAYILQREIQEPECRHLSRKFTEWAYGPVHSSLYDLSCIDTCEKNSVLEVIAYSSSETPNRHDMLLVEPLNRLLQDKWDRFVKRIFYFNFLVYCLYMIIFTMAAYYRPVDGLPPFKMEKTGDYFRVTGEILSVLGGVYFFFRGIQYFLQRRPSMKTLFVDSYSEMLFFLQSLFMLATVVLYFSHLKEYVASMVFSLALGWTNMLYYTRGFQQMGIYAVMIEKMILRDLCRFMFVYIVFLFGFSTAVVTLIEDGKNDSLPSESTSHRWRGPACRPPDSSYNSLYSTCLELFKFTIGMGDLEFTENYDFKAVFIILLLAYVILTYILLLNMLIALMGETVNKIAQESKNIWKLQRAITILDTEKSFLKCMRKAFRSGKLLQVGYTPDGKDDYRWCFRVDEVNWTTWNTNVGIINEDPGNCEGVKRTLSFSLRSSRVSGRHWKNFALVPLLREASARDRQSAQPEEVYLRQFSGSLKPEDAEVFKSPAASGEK
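Cells expressing TRPV1 were dye-loaded with Fluo-8 and read kinetically: 10 s baseline, 3 min after compound (agonist portion), then 2 min after EC20 capsaicin (allosteric enhancer portion). Calcium-bound dye fluorescence at 480/520 nm.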
PINK1 modulator = changes PINK1 expression; PINK1 immunofluorescence, high-content cytometry, 24 h; Potency, µM (titrated, usually from 76.6 µM), inactives show at the highest dose activation (PINK1 increase), most hits filed as activators; 410,000 tested, 0.2% active; AID 624263; active = well fitted activation curve with a large enough effect; inconclusive = small, poorly fitted or top-dose-only effect; inactive = flat fitted curve, though single readings scatter; cell line not stated here;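 note: potency is the fitted concentration of half-maximal effect; % of control where 0% means no effect; nearly all actives have a fitted effect of over 65% in size; a mitochondrial uncoupler was the plate control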
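Cells are seeded, rested 12 hours, then given compound at five concentrations or DMSO for 24 hours. After fixation, blocking and antibody staining, PINK1 amount and mitochondrial localization are scored; CCCP serves as control.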
Sfp inh = inhibitors of Bacillus subtilis Sfp phosphopantetheinyl transferase | Q9F4F7 | Biochemical Sfp PPTase activity, qHTS | 310,000 tested, 3.5% active | Potency, µM, for inactives: max response, negative = inhibition, hits mostly inhibitors; active = well fitted inhibition curve with a large enough effect; inconclusive = small, poorly fitted or top-dose-only effect, or another doubt; inactive = no such curve, though single readings can be large or run the other way;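 note: the enzyme is Sfp with the accession as filed and its product quenches rhodamine fluorescence; potency is the fitted concentration of half-maximal effect; 0% = enzyme reaction without inhibitor and -100% = no enzyme wells; top concentration of the series not given in the record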
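Sfp 15 nM + cpd, 15 min RT; start w/ rhodamine-CoA 5 uM, BHQ-2-YbbR 12.5 uM (final); 50 mM Hepes pH 7.6, 10 mM MgCl2, 0.01% NP-40, 0.01% BSA; read 525/598 nm at 0 and 30 min.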
TRPML1 agonist = activates the human TRPML1 channel | TRPML1-expressing cells, Ca2+ dye fluorescence, FDSS; host cell line not named in the record; reference of the full effect not given here | AID 624414 | 410,000 tested, 0.12% active | Q9GZU1 | activation, % (no concentration beside the values); in the data active = activation above about 50%; inconclusive = about 30% to 50%; inactive = below about 30%; note: 0% is about no effect; the text of the record puts the active cut at 80%
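TRPML1-DL cells, Tet-induced overnight (~16 h, 37 degrees C), loaded 45-90 min at room temperature with Ca8 no-wash calcium dye plus quencher. FDSS fluorescence: 10 s baseline, compound pin-transfer, 110 s agonist read, then EC80 54-4 (4uM final) and 110 s antagonist read.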
Menin-MLL FL inh = inhibitors of human menin-MLL interaction, wild-type MLL peptide; Fluorescence polarization, fluorescein-MLL peptide displacement from menin; FP activity change, % at 61.4 µM; 290,000 tested, under 10 active; inconclusive = falling polarisation curve, or a change in total fluorescence; inactive = total fluorescence flat and polarisation flat or rising; no compound was filed as active; the % refers to the polarisation; negative = inhibition;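 note: % of control where 0% means no effect; inhibitors lower the polarisation; unlabelled MLL peptide was the positive control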
ClpP mod = qHTS Assay for Activators of ClpP; purified B. subtilis ClpP, FRET peptide cleavage, 20 min; Potency, µM (top dose mostly 57.5 µM), for the others: top-dose activity change, negative = active; 340,000 tested, 1.9% active; AID 651965, 2013; active = well fitted falling curve with a large enough effect; inconclusive = small, poorly fitted or top-dose-only effect; inactive = no such curve, though single readings can be large or run the other way; note: potency is the fitted concentration of half-maximal effect; the source files actives as falling curves though it sought activators and does not explain the sign; nearly all actives have a fitted effect of over 65% in size; many hits overshoot -100%
Target sequence (P80244 whole entry, looked up): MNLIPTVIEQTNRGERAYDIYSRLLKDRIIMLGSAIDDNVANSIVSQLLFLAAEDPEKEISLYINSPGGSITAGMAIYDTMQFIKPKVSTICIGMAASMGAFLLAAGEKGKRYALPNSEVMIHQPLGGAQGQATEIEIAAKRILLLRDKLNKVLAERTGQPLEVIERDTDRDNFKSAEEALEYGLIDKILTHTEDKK
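Buffer: 100 mM Tris/HCl pH8, 100 mM KCl, 0.05% low protease BSA, 2.5% glycerol, 0.01% Tween-20. ClpP 10 microg/mL final; 20 min RT; delta FRET normalized to ADEP and DMSO controls.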
TRPML1 blocker = human mucolipin-1 channel inhibition. Q9GZU1. TRPML1-inducible cells, Ca2+ dye fluorescence, FDSS; active compounds read low; inhibition of EC80 agonist-evoked calcium signal. activity change, negative = inhibition, % (test concentration not listed). 390,000 tested, 0.02% active. AID 624415; in the data active means activity change below about -50%; inconclusive means about -30% to -50%; inactive means above about -30%;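 note: stimulus is agonist 54-4 at its EC80 concentration; % is set by controls: 0 for no effect and ±100 for the full control effect; compound concentration not given in the record; the text of the record puts the active cut at -80%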
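Calcium fluorescence in TRPML1-DL cells induced overnight with Tet: a 110 s read after compound pin addition, then a 110 s antagonist read after challenge with 54-4 at 4 uM final (EC80).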
Active calls of the source: *; ? = inconclusive; . = no result given; & = joins results of further samples; [ ] = another dose, or the depositor's remark. Compounds as they come; 4.4% or so of the library scored in one or more.

SMILES,TRPV1 potentiator,PINK1 modulator,Sfp inh,TRPML1 agonist,Menin-MLL FL inh,ClpP mod,TRPML1 blocker
COC(=O)c1sccc1NC(=S)Nc1cc(OC)ccc1OC,25.7,0.1%,?,-0.4,-0.2,.,-4.8
NS(=O)(=O)c1ccc(CCNC(=O)NC23CC4CC(CC(C4)C2)C3)cc1,-9.4,-2.1%,15.5%,1.6,-0.3,1.1%,13.6
CCn1c2ccc(C)cc2c2n[nH]c(=S)nc21,8.7,-0.6%,-8.7%,2.2,4.3,-8.0%,-9.5
CCCCOc1ccc(C2=NC(c3cccs3)=Nc3ccc(CC)cc3N2)cc1,.,21.8%,.,1.1,.,-1.8%,-3.8
O=C1CSc2ccc(C(=O)NCc3ccccn3)cc2N1,.,-1.2%,.,0.3,.,-3.8%,4.8
CCOc1ccc(N2C(=O)CS/C2=C(\C(Cl)=C(Cl)Cl)[N+](=O)[O-])cc1,-2.4,-1.1%,1.6%,-0.2,7.7,-2.5%,-4.9
CCC(C)Cn1cnc2c(SCc3ccccc3F)nc(N)nc21 (stereo not given),.,6.8%,.,0.1,.,.,-14.5
COc1cccc(/C=C/C(=O)OCC(=O)NC(=O)NC2CCCCC2)c1,4.4,2.2%,.,-0.7,.,?,-6.2
O=C(N=C1SC2CS(=O)(=O)CC2N1CCc1ccccc1)C1CC1 (stereo not given),-5.4,0.9%,6.2%,-0.8,1.6,1.4%,-10.7
O=C(CCc1ccc(O)cc1)NNC(=S)NCCc1ccccc1,9.1,-1.7%,12.4%,0.4,-0.9,.,1.5
CNc1ccc(C(=O)N2CCN(S(=O)(=O)c3ccc4c(c3)OCCCO4)CC2)cc1[N+](=O)[O-],-3.5,0.2%,5.3%,-0.5,0.1,1.1%,2.9
Cc1cc(C)nc(-n2nc(C)cc2NC(=O)C(C)C)n1,1.4,-2.0%,8.5%,-0.1,-4.9,-0.4%,3.6
COc1ccc(-c2csc(C(C)(O)c3ccncc3)n2)cc1OC (stereo not given),.,-0.5%,.,-1.3,.,-1.6%,.
O=C(COC(=O)c1ccccc1O)NNC(=O)c1ccc(Br)cc1,13.2,2.0%,.,-0.7,.,?,-5.0
O=C(COC(=O)CCNS(=O)(=O)c1ccccc1)NC1CC1,.,1.4%,.,-0.3,.,-5.0%,-17.9
COc1ccc(NC(=O)C2CCN(C(=O)c3ccco3)CC2)c(OC)c1,-2.0,-0.8%,12.1%,0.3,-2.0,.,-5.8
O=C(Nc1ccccc1O)c1cccc(S(=O)(=O)Nc2ccccc2O)c1,.,-1.0%,.,-0.4,.,-2.3%,24.4
CN1CCN(C(=O)c2cc3c(c(-c4cccc(Br)c4)n2)[C@H](CCO)N(S(=O)C(C)(C)C)C3)CC1 (stereo not given in full),.,2.6%,.,-0.2,.,-2.2%,34.8
O=C(O)c1c2c(nc3ccccc13)-c1ccccc1CC2,-6.8,1.0%,23.9%,1.0,-1.0,.,25.9
COc1ccc(Cl)cc1NS(=O)(=O)c1cn(C)nc1C,-5.7,1.1%,11.5%,0.0,.,1.7%,0.2
O=C(O)C1C2C=CC(C2)C1C(=O)Nc1ccccc1Br (stereo not given),5.6,2.3%,-10.5%,-0.8,-1.5,-1.2%,-8.5
CC(=O)Nc1ccc(CN2C(=O)C(Cc3ccccc3)ON=C2c2ncccc2C)cc1 (stereo not given),.,0.0%,.,0.0,.,-0.9%,.
COc1ccc(N=C2SC(CC(=O)Nc3ccccc3)C(=O)N2Cc2ccco2)cc1 (stereo not given),6.5,2.7%,29.6%,1.4,-0.1,0.8%,9.7
COc1ccc(NC(=O)Cn2c(SCc3cccc(Cl)c3)nc3ccncc32)c(OC)c1OC,.,0.1%,.,-0.9,.,-8.3%,-10.3
CCOC(=O)C1=C(C)NC(C)=C(C(=O)OCC)C1c1ccncc1,.,2.0%,.,-0.1,.,4.0%,-21.5
CN(C)CCNc1ncnc2c1ncn2[C@H]1CN(Cc2ccccc2)C[C@@H](CO)O1,.,-0.7%,.,0.3,.,1.7%,.
COC(=O)[C@@H]1C[C@@]2(O)[C@H](O)[C@H](O)[C@H](O)C[C@H]2N1Cc1ccc(C)s1,25.1,1.4%,-4.6%&7.3%,-0.4,-4.8&0.4,1.9%,-10.5
O=C(Nc1ccccc1)C1CCCN1S(=O)(=O)c1ccc(Br)cc1 (stereo not given),-4.9,0.2%,-0.9%,0.2,-2.3,-2.3%,0.6
CCCC1=Nc2cc(C(=O)NCCc3ccccc3)ccc2Sc2ccc(C)cc21,.,1.8%,.,0.2,.,-1.8%,27.8
Cc1ccc(CNCCC2=CCCCC2)cc1,-5.4,-6.9%[38.3 µM],14.5%,-0.4,0.0,0.7%,21.7
COc1ccc(C)cc1N1CC(C(=O)OCc2nc(N)nc(Nc3ccccc3C)n2)CC1=O (stereo not given),13.5,-0.4%,.,0.6,.,.,9.1
Cc1ccc(C(=O)c2cn(Cc3ccccc3F)c3cc4c(cc3c2=O)OCCO4)cc1,.,-0.5%,.,2.3,.,-0.4%,-14.5
COCCCNS(=O)(=O)c1ccc(SC)cc1,15.5,-0.6%,11.2%,1.0,5.5,0.6%,7.1
NC(=O)CC(NC(=O)Cc1ccc(Br)cc1)c1ccc(N2CCCCCCC2)c([N+](=O)[O-])c1 (stereo not given),-1.5,2.0%,39.2%[activator],-0.9,-4.3,1.5%,27.3
O=C(Nc1ccc2c(c1)OCCO2)C1CCCN1S(=O)(=O)c1cccc2cccnc12 (stereo not given),-7.7,2.4%,-8.3%,-0.4,2.9,0.6%,5.9
COc1ccc(CC(=O)Nc2ccc(-c3cn4ccc(C)cc4n3)cc2)cc1,9.6,1.7%,12.3%,-0.6,5.3,15.8µM*,-19.8
S=C(NCC1CCCO1)NC1CC1 (stereo not given),5.4,-1.4%,11.9%,0.8,1.9,.,8.4
CC(C)(C)c1cc(C(=O)NN)n(Cc2ccc(Cl)cc2Cl)n1,-21.2,5.9%,14.8%,-0.2,-1.6,.,?
Cc1ccc(S(=O)(=O)N2CCc3cc(C(=O)Nc4ccc(C(F)(F)F)cc4)ccc32)cc1,.,11.0%,.,-0.1,.,-0.4%,12.4
CN1CC=C2C(C#N)=C(N)C(C#N)(C#N)[C@H](c3ccoc3)[C@H]2C1,-0.7,39.8µM*,-0.4%,1.5,?,31.6µM*,9.9
COc1ccc(/C(O)=C2/C(=O)C(=O)N(CCCN(C)C)C2c2ccc(C)o2)cc1Cl (stereo not given),-4.9,.,89.1µM*,.,0.9,.,.
CC(CNC(=O)c1cc(COc2c(F)cccc2F)on1)c1ccccc1 (stereo not given),-8.0,6.5%,11.7%,0.2,.,2.5%,17.7
COC(=O)c1ccc(N2C(=O)CC(SCCN)C2=O)cc1 (stereo not given),-1.5,1.1%,7.7%,1.0,2.9,0.6%,-5.4
COc1ccc2c(C(=O)NCCCCO)c(-c3ccc(S(C)(=O)=O)cc3)sc2c1,.,-0.3%,.,0.5,.,4.1%,10.2
O=P(Cc1cc[n+]([O-])cc1)(c1ccccc1)c1ccccc1,4.3,-1.7%,14.4%,-0.5,-1.2,-3.5%,-2.6
O=C(CN(c1ccc(F)cc1)S(=O)(=O)c1ccccc1)NC1CC2CCC1C2 (stereo not given),-17.9,0.0%,-5.3%,0.6,.,-3.8%,1.0
COc1cc(CCCN2C(N)=NC[C@H]2Cc2ccc(O)cc2)cc(OC)c1OC,-5.4,-0.8%,14.6%,0.4,-10.6,-1.3%,2.6
COc1ccc(/C=C(/C#N)C(=O)Nc2ccc(O)cc2)cc1C(=O)O,-4.2,2.6%,11.5%,1.9,0.1,-2.3%,2.8
Cc1ccc(SCC(=O)OCC(=O)Nc2ccc3[nH]c(=O)[nH]c3c2)cc1C,7.2,2.2%,.,0.3,.,.,-8.5
CN1CCN(C(=O)c2ccccc2[N+](=O)[O-])CC1,27.0,0.2%,7.2%,0.6,2.3,-1.1%,-6.3
CCN1C(=S)SC(=O)C1=C1C=C(C)N(Cc2ccco2)C(C)=C1,19.9,-0.1%,14.1µM*,59.2*,?,0.6%,-5.7
Cc1ccc(N(C)S(=O)(=O)c2cccc(C(=O)Nc3ccc(C)cn3)c2)cc1,-13.1,2.8%,.,0.7,.,-1.0%,-0.6
O=C(COC(=O)COc1ccccc1)NCc1ccccc1,-30.3,0.2%,14.1%,-0.1,0.0,.,6.0
Cc1ccc(C(=O)Nc2nc(=O)n(C)s2)cc1,11.2,-4.8%,7.6%,0.1,2.4,-1.0%,5.0
CCCCNC(=O)C1CCN(C(=O)Nc2ccc(C)cc2)CC1,-6.1,0.2%,7.0%,0.5,-0.4,-8.0%,7.0
CCc1ccccc1N(CC(=O)OC)S(C)(=O)=O,13.4,0.6%,23.1%,-0.7,-0.4,-5.1%,38.0
O=[N+]([O-])c1cccc(COc2ncnc3cc([N+](=O)[O-])ccc23)c1,25.9,1.2%,14.5%,-0.7,3.6,.,-6.2
CCOc1ccc(-c2csc(NC(=O)CSCC(=O)O)n2)c2ccccc12,-22.2,1.2%,-13.8%,2.9,1.9,.,47.8
C[C@@]12C(=O)Nc3cc(Cl)ccc3C(=O)N1[C@H]1c3cc(Br)ccc3OC[C@@H]1[C@@H]2c1ccccc1,2.9,1.0%,.,1.1,.,-19.8%,-4.1
C=CCn1c(SCC(=O)Nc2sc3c(c2C#N)CCC(C)C3)nc2cc(C(=O)O)ccc2c1=O (stereo not given),.,1.3%,.,-0.7,.,.,3.0

More entries:
SMILES,TRPV1 potentiator,PINK1 modulator,Sfp inh,TRPML1 agonist,Menin-MLL FL inh,ClpP mod,TRPML1 blocker
CC(=O)NC1(c2ccccc2)CCN(C(=O)N2CCOCC2)CC1,4.9,3.6%,21.3%,-0.6,2.9,-0.9%,-2.1
CN1CCC(N(C)C(=O)c2cc(S(=O)(=O)N(C)c3ccccc3)ccc2Cl)CC1,.,-1.0%,.,-0.7,.,-0.9%,-6.5
Cc1cccc(N(C)S(=O)(=O)c2cc3c(cc2Cl)NC(=O)CO3)c1,.,0.3%,.,0.3,.,-0.4%,-2.0
CC(C)n1nnnc1C1c2ccccc2C(=O)N1Cc1cccs1 (stereo not given),.,0.7%,.,-0.5,.,-3.0%,.
O=C(CCN1CCN(Cc2ccccc2)CC1)NNC(=O)Cc1ccc(Cl)c(Cl)c1,5.5,3.4%,20.4%,0.0,2.3,1.6%,-5.7
